EPAC1 ag: activates human EPAC1 exchange factor; O95398; EPAC1 agonist qHTS, biochemical assay; response scale: 100% = response to 6.5 mM cAMP; Potency, µM (doses to about 154 µM), without a hit: top-dose activation, most hits filed as activators; 360,000 compounds, 0.073% hits; AID 720707; further: potency means the concentration at half of the fitted maximal effect; nearly all actives have a fitted effect of over 60% in size
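Nucleotide exchange assay: 100 nM EPAC1 with 250 nM Rap1B loaded with BODIPY-GDP and 50 uM GDP, room temperature. Fluorescence (480/540 nm) read every 5 min for 30 min; signal change normalized to 6.5 mM cAMP as full agonist.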
Abeta yeast res: restores growth of yeast expressing A-beta42 peptide; AID 1347071; yeast expressing A-beta42, growth rescue, OD600, 48 h; response scale: 0% DMSO, 100% iron-clioquinol control; Potency, µM (series often up to 46.1 µM), inactives show top-dose growth rescue, most hits filed as activators; 410,000 compounds, 0.063% hits; further: potency means the concentration at half of the fitted maximal effect; nearly all actives have a fitted effect of over 55% in size
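Growth rescue measured by 600 nm absorbance after 48 h yeast culture at 30 C with compound. Values normalized between DMSO and an equimolar ferric chloride plus clioquinol control.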
EPAC1 antag: blocks human EPAC1 exchange factor; O95398; 360,000 compounds, 0.14% hits; EPAC1 GEF assay, Rap1b-BODIPY-GDP exchange fluorescence; Potency, µM (highest dose often 115 µM), inactives show at the highest dose activity change, negative = inhibition, usual class: inhibitors;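 further: potency means the concentration at half of the fitted maximal effect; plate controls were vehicle for no effect and positive control for full effect; nearly all actives have a fitted effect of over 50% in size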
aSyn yeast inh: rescues yeast growth from alpha-synuclein toxicity | Yeast expressing alpha-synuclein, growth rescue, BacTiter-Glo, 24 h | Potency, µM (titrated, usually from 46.1 µM), without a hit: at the highest dose growth rescue (activation), usual class: activators | 370,000 compounds, 0.14% hits; further: potency means the concentration at half of the fitted maximal effect; % of control where 0% means no effect; nearly all actives have a fitted effect of over 65% in size
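Screening used galactose-induced yeast with toxic alpha-synuclein levels, exposed to compound for 24 hr at 30 deg C. Cell growth, read with BacTiter-Glo luminescence, gave the measured signal.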
FUS yeast rescue: FUS proteinopathy suppression in yeast; S. cerevisiae FUS-expressing, growth rescue, OD600, 24 h; 390,000 compounds, 0.24% hits; AID 1347120; Potency, µM (doses to about 76.6 µM), for inactives: top-dose growth rescue (activation), usual class: activators;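 further: potency means the concentration at half of the fitted maximal effect; plate controls were DMSO vehicle for no effect and reference control for full effect; nearly all actives have a fitted effect of over 55% in size; some results filed as inactive show a strong effect at the top dose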
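Galactose (2%) drives FUS expression in yeast precultured in raffinose; seeding density OD 0.005. Test compounds incubated 24hr at 30C and 99% humidity before absorbance at 600 nm was measured.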
PLK1 PBD block: PLK1 (human) polo-box domain binding inhibition; P53350; Plk1 PBD binding of FITC phosphopeptide, fluorescence polarization; Potency, µM, for the others: max response, negative = inhibition, actives largely listed as inhibitors; 360,000 compounds, 2.8% hits; AID 720504; further: potency means the concentration at half of the fitted maximal effect; series mostly up to about 57 µM; on the % scale 0 is the no-effect control and ±100 the full control effect; nearly all actives have a fitted effect of over 65% in size
Target sequence (P53350 whole entry, looked up, the tested form may be a part): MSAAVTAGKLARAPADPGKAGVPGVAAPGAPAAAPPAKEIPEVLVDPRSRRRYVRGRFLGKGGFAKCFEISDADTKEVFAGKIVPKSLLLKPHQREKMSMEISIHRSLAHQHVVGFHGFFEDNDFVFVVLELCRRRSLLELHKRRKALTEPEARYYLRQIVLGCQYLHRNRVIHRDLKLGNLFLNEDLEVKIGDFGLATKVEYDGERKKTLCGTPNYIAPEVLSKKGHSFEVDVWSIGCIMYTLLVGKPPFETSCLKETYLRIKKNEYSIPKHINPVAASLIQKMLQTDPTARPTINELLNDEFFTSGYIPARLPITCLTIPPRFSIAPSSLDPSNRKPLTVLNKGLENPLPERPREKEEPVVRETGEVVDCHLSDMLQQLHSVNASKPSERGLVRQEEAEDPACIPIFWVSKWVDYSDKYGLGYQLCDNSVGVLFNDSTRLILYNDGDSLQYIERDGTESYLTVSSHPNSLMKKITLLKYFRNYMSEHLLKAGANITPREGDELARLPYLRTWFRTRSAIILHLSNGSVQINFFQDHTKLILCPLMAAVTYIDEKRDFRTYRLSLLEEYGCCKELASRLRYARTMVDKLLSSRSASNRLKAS
IL2 activator: IL-2 activation. activation, % (series mostly up to about 46 µM). 360,000 compounds, 0.065% hits. IL-2 activation reporter assay, cell-based qHTS; stimulated with anti-CD3/CD4/CD28 beads; in transgenic mouse T cells. AID 652025; in the data active means activation above about 50%; inconclusive means mostly about 30% to 49%; further: 0% is about no effect
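Unstimulated transgenic mouse T cells; 60-min compound exposure; bead-based TCR/CD4/CD28 stimulation; 18 h culture, 37 degrees C; dual fluorescence (EGFP, DsRed) plate cytometry.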
PI5P4K alpha inh: inhibitors of human PI5P4K alpha. PI5P4Kalpha enzyme, ADP-Glo luminescence, 60 min; active compounds read low. P48426. max response, %. AID 652105. 330,000 compounds, 1.2% hits; active means max response of -50% or lower; inconclusive means between -30% and -50%; inactive means -30% or higher; further: value at the top dose of about 77 µM; on the % scale 0 is the no-effect control and ±100 the full control effect
Target sequence (P48426 whole entry, looked up): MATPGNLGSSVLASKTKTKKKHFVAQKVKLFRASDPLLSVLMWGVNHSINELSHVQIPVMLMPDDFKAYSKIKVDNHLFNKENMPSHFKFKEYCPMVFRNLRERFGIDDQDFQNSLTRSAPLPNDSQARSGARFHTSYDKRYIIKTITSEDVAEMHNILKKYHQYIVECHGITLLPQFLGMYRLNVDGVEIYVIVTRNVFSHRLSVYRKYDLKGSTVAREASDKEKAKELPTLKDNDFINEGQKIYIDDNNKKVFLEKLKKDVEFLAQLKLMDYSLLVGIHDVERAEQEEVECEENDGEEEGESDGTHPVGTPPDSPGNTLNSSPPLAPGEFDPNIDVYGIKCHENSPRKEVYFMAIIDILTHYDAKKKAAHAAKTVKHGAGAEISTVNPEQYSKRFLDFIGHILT
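Reactions run in 0.038 M HEPES pH 7.4, 0.28 mM EGTA, 0.1% CHAPS and 5% DMSO, with PI5P4Kalpha, substrate, compound and 5 microM ATP final, one hour at room temperature. Readout is ADP-Glo luminescence.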
Numbers without * were called inactive; u = inconclusive; x = not tested or not shown; [ ] = dose if it differs, or a comment. Unless noted, the call rests on the fitted dose curve; in most records, active means well fitted curve in the direction sought with a large enough effect; inconclusive means small, poorly fitted or top-dose-only effect, or another doubt; inactive means no such curve, though single readings can be large; an effect the other way counts as inactive or inconclusive. A portion of the library; count on the stated rates, not on these rows.

SMILES | EPAC1 ag | Abeta yeast res | EPAC1 antag | aSyn yeast inh | FUS yeast rescue | PLK1 PBD block | IL2 activator | PI5P4K alpha inh
COc1ccc(-c2cc(-c3n[nH]c(=S)n3-c3ccccc3OC)[nH]n2)cc1 | -2% | -3% | -5% | -2% | x | -29% | 0.1 | -20
CCOc1ccc(C(=O)OCC(=O)N2CCCC2)cc1 | 5% | -16% | -3% | -2% | 0% | 0% | -1.6 | 2
O=[N+]([O-])c1ccc2c3n([n+]([O-])c2c1)CCN=C3c1ccc(Cl)cc1 | 11% | 5% | 3% | 0% | 24% | -8% | -0.5 | u
CCCCCOc1ccc(C(=O)CCC(=O)NNC(=O)c2ccncc2)cc1 | -3% | 12% | 3% | 4% | 7% | -2% | -2.7 | -2
CN1CCNC(=O)C1CC(=O)NCC1(c2ccccc2)CCCCC1 (configuration not stated) | -8% | -5% | -20% | -2% | -15% | -19% | 2.2 | -2
CN1C(=O)[C@H]2[C@@H](/C=C/c3ccccc3)N3C(=O)CN(CCO)C(=O)[C@@]3(Cc3ccccc3)[C@H]2C1=O | -31%[inhibitor] | -7% | -26% | 1% | -14% | -4% | 0.2 | 0
CCn1c(SCC(=O)NCc2ccco2)nc2ccccc2c1=O | 1% | -2% | -17% | -3% | -17% | -9% | -0.2 | 8
Cc1cc(C)nc(Sc2ccc(/C=C(\C#N)C(N)=O)o2)n1 | 11% | 3% | 9% | 5% | 17% | 0% | 1.2 | 2
COc1ccc(-c2cc(=O)oc3cc(O)ccc23)cc1 | 6% | -9% | 4% | -7% | 26% | -13% | 0.6 | 1
Cc1ccccc1CN1CCNC(=O)C1CC(=O)NCCC1=CCCCC1 (configuration not stated) | -15% | -10% | -7% | 1% | 33% | -13% | 0.4 | 5
Cc1ccc(S(=O)(=O)N2CCN(C(=O)COC(=O)/C=C/c3ccc(Cl)cc3)CC2)c(C)c1 | -2% | 4% | -4% | -3% | x | -2% | -2.6 | 1
O=C(NCCSc1ccc(Cl)cc1)c1ccco1 | -7% | 0% | 17% | -3% | 12% | 1% | -1.8 | 2
Cc1[nH]n2c(=O)c(C#N)c(-c3ccccc3)nc2c1-c1ccccc1 | 7% | 8% | 15% | -5% | 7% | -8% | -0.1 | -2
CN(C)S(=O)(=O)c1ccc(Cl)c(C(=O)NNC(=O)Cc2nc3ccccc3n2C)c1 | 6% | 0% | -4% | 2% | 7% | -5% | 0.0 | 2
CCc1ccccc1NC(=O)/C(C#N)=C\c1ccc(Sc2ccccc2)o1 | 24% | -29% | -12% | -3% | 38% | -8% | 1.0 | x
Cc1cc(C)c(NC(=O)C2CCCN2CCO)c(C)c1 (configuration not stated) | 0% | -6% | 24% | x | 10% | 0% | -1.1 | 1
CCOC(=O)c1sc(NC(=O)CSc2nc(C)cc(-c3ccccc3)n2)c(C#N)c1C | 5% | 11% | 2% | 4% | -10% | -6% | 1.6 | x
CC(=O)OCC1=C(C(=O)O)N2C(=O)C(NC(=O)c3ccc(COc4c(C)cccc4Cl)o3)C2SC1 (configuration not stated) | 0% | 11% | u | 0% | 28% | -15% | 2.6 | -28
Nc1cc(=O)nc(SCC(=O)N(C2CCCCC2)C2CCCCC2)n1-c1ccccc1 | 7% | -26% | 0% | -4% | 28µM* | -12% | 2.5 | x
O=C(COc1cccc(C(F)(F)F)c1)N1CCN(c2ccc(O)cc2)CC1 | -13% | -32% | -4% | 25% | u | -2% | -4.7 | u
Cc1cc(C)c(NC(=O)C2CCCCN2C)c(C)c1 (configuration not stated) | -3% | 21% | 15% | 3% | 11% | 1% | -1.6 | x
O=C(CSc1ccc(-c2ccccn2)nn1)Nc1nccs1 | -7% | -8% | -14% | -5% | 5% | -1% | -1.0 | -1
CC1(C(=O)NS(=O)(=O)C2CC2)CCN(C(=O)c2ccccc2F)C1 (configuration not stated) | 10% | -16% | -3% | 7% | -19% | -11% | -0.1 | -78*
Cc1cc2cc(C)c3nnc(SCC(=O)NCc4ccco4)n3c2cc1C | 4% | 9% | -6% | 1% | 14% | -4% | 0.1 | x
O=C(O)c1ccc(Nc2cc(Cl)c3nonc3c2[N+](=O)[O-])cc1 | 4% | -64%[inhibitor] | -19% | 5% | 10% | 4.7µM* | -4.1 | -25
Cc1[nH]n2c(=O)c3c(nc2c1-c1cccc2ccccc12)CCC3 | -3% | 6% | 7% | -5% | u | -4% | 1.9 | -8
Cc1cccc(NC2SC(=O)N(CC(=O)O)C2=O)c1 (configuration not stated) | -1% | -18% | 21% | -1% | 15% | -23% | -1.0 | x
COc1cc(/C=C2\CCCc3c2nc2ccccc2c3C(=O)O)cc(Cl)c1O | -13% | 12% | -21% | 0% | 27% | -6% | 0.7 | -24
CC1CCN(C(=O)CCCNC(=O)Cn2cnc3sc4c(c3c2=O)CCCC4)CC1 | -3% | -3% | 5% | 3% | -6% | -7% | 0.2 | 0
CCNC(=S)N/N=C/c1ccc(OCc2ccc(C(=O)OC)cc2)cc1 | -14% | -5% | -3% | 10% | x | 2% | -1.3 | 2
Cc1nn(-c2ccccc2)c(N)c1C1(O)C(=O)N(C(C)C)c2ccccc21 (configuration not stated) | 7% | -5% | 1% | -4% | x | 1% | -4.1 | 7
COc1ccc(-c2nnc(-c3ccc(N)cc3)o2)cc1 | 0% | -26% | -3% | 5% | 21% | -1% | -1.7 | -3
O=C(COc1cccc(F)c1)NNC(=O)c1cccc(-n2cccc2)c1 | -1% | 6% | -18% | 0% | -4% | -11% | 0.9 | -63*
Cn1ncc(Cl)c1C(=O)Nc1ccncc1 | 5% | 4% | -2% | -5% | -3% | -7% | -2.1 | -3
Clc1ccc2nc(-c3ccco3)c(Cc3ccccc3)n2c1 | 6% | -82%[inhibitor] | u | -67%[inhibitor] | u | u | -0.9 | -65*
C=CCNC(=O)C1(S(=O)(=O)c2ccccc2)CC=CC1 | -19% | 0% | 8% | -2% | -21% | -4% | 0.4 | -1
Cc1ccc(-n2nnnc2CCl)cc1 | -6% | -41% | -25% | -3% | 7% | -5% | -5.6 | -8
CC(C)CCn1nnnc1CN1CCN(c2ccccc2)CC1 | -5% | 5% | 12% | 8% | -3% | -9% | -2.9 | -2
Cc1ccc([C@@H]2[C@@H]3C(=O)N(C)C(=O)[C@@H]3[C@]3(Cc4ccccc4)C(=O)N(CCO)CC(=O)N23)o1 | 7% | -4% | 5% | 2% | -18% | -10% | 1.4 | 5
COc1ccc(CN(CCC(c2ccccc2)c2ccco2)C(=O)c2ccco2)cc1 (configuration not stated) | 4% | -2% | u | 3% | 33% | -8% | 0.0 | u
COc1cccc(/C=C/C(=O)OCC(=O)N2CCN(c3ccccc3)CC2)c1 | 13% | -1% | -28% | -4% | u | -8% | 1.0 | -12
O=C(Cc1ccccc1F)Nc1nc2ccccc2[nH]1 | 5% | -7% | -17% | 7% | 14% | -17% | -0.7 | 5
NC(CCc1ccccc1)c1csc(Nc2ccccn2)n1 (configuration not stated) | -1% | 20% | -3% | -1% | -5% | 0% | -0.6 | -5
COc1ccc(OC)c(NC(=O)Cc2coc3cc(C)cc(C)c23)c1 | 7% | 16% | 2% | -1% | 16% | -5% | -1.7 | x
COc1ccc(-c2cnc3c(NC=O)cc(-c4ccc(F)cc4)cn23)cc1OC | -3% | 10% | -8% | -5% | 23% | -11% | -0.5 | -30
CCC(C)(C)n1nnnc1CN1CCN(c2nc3cc(OC)ccc3cc2C#N)CC1 | 9% | 4% | 0% | 6% | 10% | -23% | -0.5 | -1
COc1cccc(C(=O)NC2C(=O)N3C(C(=O)O)=C(COC(C)=O)CSC23)c1 (configuration not stated) | -1% | -4% | u | 0% | -7% | 21µM* | 0.2 | -7
NC(=O)SCC(=O)Nc1ccc(Cl)cc1 | -10% | -12% | 2% | -1% | -5% | -17% | 0.1 | -6
COc1ccc(C(=O)N2CCC(C)(C(=O)NS(=O)(=O)C3CC3)C2)cc1F (configuration not stated) | -10% | -6% | 9% | -3% | -19% | 2% | 0.2 | -7
COc1ccccc1-c1ccc(=O)n(CC(=O)NCc2ccco2)n1 | 1% | -10% | 19% | 1% | 4% | -4% | 0.5 | 3
C=CCn1cnnc1SCC(=O)NCC1COc2ccccc2O1 (configuration not stated) | 3% | -2% | 10% | 1% | 5% | -4% | -0.1 | -7
Cc1ccc2nc(Nc3ccccc3)c(/C=N/O)c(=O)n2c1 | 4% | -5%[9.22 µM] | u | 7% | -28% | -4% | 1.5 | 0

Reprinted from the entries so far (ten entries):
SMILES | EPAC1 ag | Abeta yeast res | EPAC1 antag | aSyn yeast inh | FUS yeast rescue | PLK1 PBD block | IL2 activator | PI5P4K alpha inh
COc1ccc(CN(CCC(c2ccccc2)c2ccco2)C(=O)c2ccco2)cc1 (configuration not stated) | 4% | -2% | u | 3% | 33% | -8% | 0.0 | u
COc1cccc(/C=C/C(=O)OCC(=O)N2CCN(c3ccccc3)CC2)c1 | 13% | -1% | -28% | -4% | u | -8% | 1.0 | -12
O=C(Cc1ccccc1F)Nc1nc2ccccc2[nH]1 | 5% | -7% | -17% | 7% | 14% | -17% | -0.7 | 5
NC(CCc1ccccc1)c1csc(Nc2ccccn2)n1 (configuration not stated) | -1% | 20% | -3% | -1% | -5% | 0% | -0.6 | -5
COc1ccc(OC)c(NC(=O)Cc2coc3cc(C)cc(C)c23)c1 | 7% | 16% | 2% | -1% | 16% | -5% | -1.7 | x
COc1ccc(-c2cnc3c(NC=O)cc(-c4ccc(F)cc4)cn23)cc1OC | -3% | 10% | -8% | -5% | 23% | -11% | -0.5 | -30
CCC(C)(C)n1nnnc1CN1CCN(c2nc3cc(OC)ccc3cc2C#N)CC1 | 9% | 4% | 0% | 6% | 10% | -23% | -0.5 | -1
COc1cccc(C(=O)NC2C(=O)N3C(C(=O)O)=C(COC(C)=O)CSC23)c1 (configuration not stated) | -1% | -4% | u | 0% | -7% | 21µM* | 0.2 | -7
NC(=O)SCC(=O)Nc1ccc(Cl)cc1 | -10% | -12% | 2% | -1% | -5% | -17% | 0.1 | -6
COc1ccc(C(=O)N2CCC(C)(C(=O)NS(=O)(=O)C3CC3)C2)cc1F (configuration not stated) | -10% | -6% | 9% | -3% | -19% | 2% | 0.2 | -7

Bioassay records as filed in PubChem.
